NS1 inh = inhibitors of influenza NS1 protein function; Potency, µM (titrated, usually from 46.1 µM), without a hit: at the top dose activity, positive = more growth; S. cerevisiae slowed by influenza A NS1, growth recovery by OD600; 0.4% of 270,000 active; further: actives are rising curves; nearly all actives have a fitted effect of over 50% in size
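OD600 was taken as the measure of yeast growth restored by compound in an NS1-expressing S. cerevisiae strain. Cells had been washed out of glucose medium and diluted 1:100 into galactose -URA medium, pH 6.0.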
Marburg entry inh = inhibitors of Marburg virus binding or cell entry; Marburg virus pseudotyped entry inhibition, cell reporter; control for the full effect not named in the record; about a third of the inactives were read at about 46 µM; Potency, µM (series often up to 37.8 µM), inactives show top-dose activity change, negative = inhibition, hits mostly inhibitors; 1.8% of 300,000 active; AID 540276; active = well fitted inhibition curve with a large enough effect; inconclusive = small, poorly fitted or top-dose-only effect, or effect the other way; inactive = flat fitted curve, though single readings scatter; tested in HEK293 cells; about a fifth of its hits are not listed in these tables; further: on the % scale 0 is the no-effect control and ±100 the full control effect; luciferase read-out
Cruzain inh Det = cruzain (T. cruzi) inhibition with detergent. purified cruzain, Z-FR-AMC fluorescence, 0.01% Triton. P25779. Potency, µM, without a hit: max response, negative = inhibition, actives largely listed as inhibitors. 0.43% of 200,000 active. AID 1478; active means well fitted curve in the direction sought with a large enough effect; inconclusive means small, poorly fitted or top-dose-only effect, or another doubt; inactive means no such curve, though single readings can be large; an effect the other way counts as inactive or inconclusive;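 further: plate controls were neutral wells for no effect and buffer without enzyme for full effect; nearly all actives have a fitted effect of over 40% in size; top concentration of the series not given in the record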
Target sequence (P25779 123-467 limits assumed): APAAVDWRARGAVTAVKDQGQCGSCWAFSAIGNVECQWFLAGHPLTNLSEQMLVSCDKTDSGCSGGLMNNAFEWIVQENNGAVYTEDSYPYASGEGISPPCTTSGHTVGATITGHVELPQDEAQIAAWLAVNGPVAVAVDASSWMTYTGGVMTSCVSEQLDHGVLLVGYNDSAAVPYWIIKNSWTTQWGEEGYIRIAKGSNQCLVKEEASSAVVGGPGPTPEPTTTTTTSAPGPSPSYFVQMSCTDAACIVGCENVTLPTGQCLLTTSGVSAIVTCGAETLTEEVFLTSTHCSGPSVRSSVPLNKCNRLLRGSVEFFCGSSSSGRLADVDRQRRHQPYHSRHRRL
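Steps: dispense cruzain (1.5 nM final) in acetate buffer pH 5.5 with DTT and 0.01% Triton X-100; pin-transfer compounds; incubate 15 min RT; add Z-FR-AMC (2 uM final); read fluorescence every 30 s, using the 60 s intensity change.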
RE007 growth inh = less growth of the S. pombe RE007 Vpr strain; 0.21% of 360,000 active; S. pombe RE007 Vpr strain, BacTiter-Glo ATP luminescence, 24 h; control for the full effect not named in the record; AID 651644; Potency, µM (titrated, usually from 92.2 µM), inactives show at the top dose activity change, negative = less growth; active = well fitted falling curve with a large enough effect; inconclusive = small, poorly fitted or top-dose-only effect; inactive = no such curve, though single readings can be large or run the other way;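 further: on the % scale 0 is the no-effect control and ±100 the full control effect; nearly all actives have a fitted effect of over 50% in size; the assay follows cell death caused by Vpr and the record does not say whether a fall means rescue or toxicity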
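Fission yeast RE007 carrying one integrated HIV-1 vpr copy, seeded at OD 0.01 in PMG+AL medium with 23 nL pinned compound. Grown 24 h at 30 degrees; viability read by BacTiter-Glo luminescence after 5 min.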
StopGo reporter = FMDV 2A StopGo reporter, luciferase signal; human cells with a luciferase reporter of 2A StopGo recoding; control for the full effect not named in the record; Potency, µM (highest dose often 57.9 µM), inactives show at the highest dose signal change, negative = less light; 1.2% of 410,000 active; active = well fitted falling curve with a large enough effect; inconclusive = small, poorly fitted or top-dose-only effect; inactive = no such curve, though single readings can be large or run the other way; tested in HEK293T cells; further: on the % scale 0 is the no-effect control and ±100 the full control effect; nearly all actives have a fitted effect of over 45% in size; luciferase light after 4 h
Cruzain noTriton = cruzain (T. cruzi) inhibition without detergent; P25779; purified cruzain, Z-FR-AMC fluorescence, no detergent; Potency, µM, inactives show max response, negative = inhibition, usual class: inhibitors; 2.3% of 200,000 active; active means well fitted curve in the direction sought with a large enough effect; inconclusive means small, poorly fitted or top-dose-only effect, or another doubt; inactive means no such curve, though single readings can be large; an effect the other way counts as inactive or inconclusive;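 further: plate controls were enzyme without inhibitor for no effect and buffer without enzyme for full effect; nearly all actives have a fitted effect of over 40% in size; top concentration of the series not given in the record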
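Detergent-free condition (0.00005% Triton X-100) in acetate buffer pH 5.5 with DTT. 1.5 nM enzyme and compound were pre-mixed 15 min, then 2 uM Z-FR-AMC substrate added; reaction progress from fluorescence change between first and third reads (60 s).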
Lassa entry inh = inhibitors of Lassa virus binding or cell entry; Lassa virus pseudotype entry inhibition, cell reporter; control for the full effect not named in the record; Potency, µM (titrated, usually from 37.9 µM), inactives show at the top dose activity change, negative = inhibition, usual class: inhibitors; 1.2% of 300,000 active; AID 540256; active means well fitted inhibition curve with a large enough effect; inconclusive means small, poorly fitted or top-dose-only effect, or effect the other way; inactive means flat fitted curve, though single readings scatter; tested in HEK293 cells; further: on the % scale 0 is the no-effect control and ±100 the full control effect; nearly all actives have a fitted effect of over 50% in size; luciferase read-out
SARS PLpro yeast = blocks SARS-CoV papain-like protease in a yeast assay; 0.19% of 330,000 active; S. cerevisiae expressing SARS-CoV PLpro, growth rescue; control for the full effect not named in the record; Potency, µM (titrated, usually from 32.9 µM), inactives show at the highest dose activity, positive = growth rescue; further: 0% is about no effect; nearly all actives have a fitted effect of over 55% in size; growth read by luminescence after 48 h
* marks the source's active call; other numbers are inactive results; ? = inconclusive; . = no result given; & = joins results of further samples; [ ] = another dose, or the depositor's remark. Unless noted, the call rests on the fitted dose curve; in most records, active means well fitted rising curve with a large enough effect; inconclusive means small, poorly fitted or top-dose-only effect; inactive means no such curve, though single readings can be large or run the other way. Potency means the concentration at half of the fitted maximal effect.

The first 10 entries, to show the layout:
Value order – NS1 inh, Marburg entry inh, Cruzain inh Det, RE007 growth inh, StopGo reporter, Cruzain noTriton, Lassa entry inh, SARS PLpro yeast
- N#C/C(=C\c1ccc(OCCN2CCOCC2)cc1)C(=O)Nc1ccccc1
→ -8%, 19%, ., -6%, -27%, ., 2%, 19%
- Cc1cc(OCCn2cnc3ccccc3c2=O)cc(C(C)C)c1
→ 22%, 15%, -8.7%, 6%, -22%, 16%, 3%, -8%
- O=C(Cn1c2ccccc2c(=O)c2cc([N+](=O)[O-])ccc21)Nc1ccccc1Cl
→ -15%, 2%, -26%, 13%, -16%, ?, ., 9%
- O=C(Nc1ccno1)Nc1ccc(Cl)cc1Cl
→ -47%, -4%, ., -17%, -8%, ., -7%, -2%
- COc1ccccc1CCNC(=O)C(=O)NCC(c1ccco1)S(=O)(=O)c1cccs1 (stereo not drawn)
→ ., ., -3.3%, ., 0%, 5%, 0%[46.1 µM], .
- O=C(CSc1nnc(CNc2ccc(F)cc2)n1Cc1ccccc1)NCc1ccccc1
→ -13%, ?, -4.3%, 6%, -21%, ?, -20%, 17%
- CC(C)(C)C(=O)Nc1ccc(-c2csnn2)cc1
→ -4%, -3%, ., -14%, 56%[activator], ., ., 0%
- CC(CN1CCOCC1)OC(=O)c1ccccc1 (stereo not drawn)
→ -3%, ?, ., -23%, 4%, ., ?, 0%
- COc1ccc(/C=N/NC(=O)c2ccco2)cc1OCc1ccccc1
→ -4%, ?, ., -1%, ?, ., 21%, 0%
- Cc1ccnc2nc(C(=O)OCCOc3cccc(Br)c3)nn12
→ -34%, 1%[46.1 µM], 0.6%, 9%, 5%, 7%, 13%, 1%

Main list, from the start:
Value order – NS1 inh, Marburg entry inh, Cruzain inh Det, RE007 growth inh, StopGo reporter, Cruzain noTriton, Lassa entry inh, SARS PLpro yeast
- N#C/C(=C\c1ccc(OCCN2CCOCC2)cc1)C(=O)Nc1ccccc1
→ -8%, 19%, ., -6%, -27%, ., 2%, 19%
- Cc1cc(OCCn2cnc3ccccc3c2=O)cc(C(C)C)c1
→ 22%, 15%, -8.7%, 6%, -22%, 16%, 3%, -8%
- O=C(Cn1c2ccccc2c(=O)c2cc([N+](=O)[O-])ccc21)Nc1ccccc1Cl
→ -15%, 2%, -26%, 13%, -16%, ?, ., 9%
- O=C(Nc1ccno1)Nc1ccc(Cl)cc1Cl
→ -47%, -4%, ., -17%, -8%, ., -7%, -2%
- COc1ccccc1CCNC(=O)C(=O)NCC(c1ccco1)S(=O)(=O)c1cccs1 (stereo not drawn)
→ ., ., -3.3%, ., 0%, 5%, 0%[46.1 µM], .
- O=C(CSc1nnc(CNc2ccc(F)cc2)n1Cc1ccccc1)NCc1ccccc1
→ -13%, ?, -4.3%, 6%, -21%, ?, -20%, 17%
- CC(C)(C)C(=O)Nc1ccc(-c2csnn2)cc1
→ -4%, -3%, ., -14%, 56%[activator], ., ., 0%
- CC(CN1CCOCC1)OC(=O)c1ccccc1 (stereo not drawn)
→ -3%, ?, ., -23%, 4%, ., ?, 0%
- COc1ccc(/C=N/NC(=O)c2ccco2)cc1OCc1ccccc1
→ -4%, ?, ., -1%, ?, ., 21%, 0%
- Cc1ccnc2nc(C(=O)OCCOc3cccc(Br)c3)nn12
→ -34%, 1%[46.1 µM], 0.6%, 9%, 5%, 7%, 13%, 1%
- COc1cc(C(=S)N2CCOCC2)cc(OC)c1OC(=O)c1cc([N+](=O)[O-])cc([N+](=O)[O-])c1
→ 11%, -2%[46.1 µM], -7.9%, 1%, -27%, ?, 15%, 1%
- Cc1ccc(S(=O)(=O)N2CCN(C(=O)c3ccco3)CC2)c(C)c1
→ -4%, ., ., 2%, -28%, ., ., 2%
- COC(=O)c1ccccc1NC(=O)c1sc(Cl)nc1C
→ 0%, 6%[46.1 µM], ., -10%, 0%, ., -4%[46.1 µM], -4%
- COc1cc(CN2CCC(C(=O)N3CCC(C)CC3)CC2)cc(Br)c1O
→ -5%, -1%&-8%, 1.8%, 19%, -7%, -10%, -19%, -11%
- COc1ccc(C2c3cc(OC)c(OC)cc3CCN2C(=O)c2ccccc2Br)cc1OC (stereo not drawn)
→ 15%, ., ., 15%, ?, ., ., -1%
- Cc1oc(-c2ccc(Cl)cc2)nc1CN1CCCC(C(=O)NCc2ccccn2)C1 (stereo not drawn)
→ -14%, -11%, 6.9%, -8%, -5%, 11%, 3%, 6%
- COc1ccc(N(CC(=O)NCCc2ccccc2)S(=O)(=O)c2ccc(OC)c(OC)c2)cc1
→ ., ., -1.5%, ., -6%, 2%, 6.3µM*, .
- COc1ccc2c(CC(=O)Nc3ccccc3OC)coc2c1
→ -7%, 6%, ., -18%, 32%[activator], ., 11%, 0%
- O=C(O)c1cccc(-c2ccc(/C=C3/SC(=Nc4ccccc4)N(Cc4cccnc4)C3=O)o2)c1
→ 2%, ?, ., -3%, 26%, ., 1%, 0%
- CCOCC(=O)N1CCN(c2ccc(F)cc2)CC1
→ 2%, 16%, 0.8%, 30%, -25%, -1%, -22%, 6%
- Clc1ccc(OCc2nnc(-c3ccccc3Br)o2)c(Cl)c1
→ -28%, ?, -7.4%, 3%, 55%[activator], -4%, ?, 11%
- C=CCN(CC=C)C(=S)NC(=O)c1ccc([N+](=O)[O-])cc1
→ -64%, -5%, -1.3%, ?, -7%, -7%, -17%, -24%
- Cc1cccc(Nc2c([N+](=O)[O-])c(=O)n(C)c3ccccc23)c1
→ 9%, -8%, -2.5%, -15%, -7%, -5%, -17%, 6%
- Cc1ccc(NC(=O)c2cc(=O)c3ccccc3o2)c(C)c1
→ 4%, ?, -0.6%, -8%, 18%, 0%, 1%, -19%
- CCOC(=O)CSC1=C(C#N)C(c2ccc(C)s2)CC(=O)N1 (stereo not drawn)
→ -9%, ?, -0.2%, 2%, ., 3%, ?, 1%
- CCN1CCc2c(sc(N)c2C#N)C1
→ 1%, 19%, -2.8%, -2%, -23%, -5%, 8%, 6%
- CCOC(=O)/C(=N\Nc1ncnc2ccccc12)c1ccc(C)cc1
→ -5%, ?, ., -3%, ?, ., 1.1µM*, -3%
- Cc1cc(C(=O)CN2C(=O)NC3(CCC(C)CC3)C2=O)c(C)n1C (stereo not drawn)
→ 5%, -31%, ., -3%, -5%, ., -5%, 0%
- CCN(CC(=O)Nc1ccc(NC(C)=O)cc1)C(=O)Cc1c(Cl)cccc1Cl
→ -2%, 8%, ., 0%, -6%, ., 5%, -7%
- Cc1ccc(CS(=O)(=O)CCC(=O)NCCCN2CCCC2=O)cc1
→ ?, -9%, 5.3%, -2%, -1%, 0%, -5%, 6%
- CCOc1cccc(N(C(=O)c2ccco2)C(C(=O)NC2CCCC2)c2cccnc2)c1 (stereo not drawn)
→ 2%, -16%[46.1 µM], ., -4%, -5%, ., -9%[46.1 µM], 2%
- COCCNC(=O)C(=O)c1cc(C)n(-c2ccc([N+](=O)[O-])cc2)c1C
→ -2%, -4%, -2.6%, 8%, -23%, 2%, 3%, 3%
- C=CCn1c(-c2ccc([N+](=O)[O-])cc2)n[nH]c1=S
→ 21%, 4%, -4.8%, -9%, -19%, -13%, ?, 9%
- Cc1c(C(=O)NC2CC(=O)N(c3ccc4c(c3)OCCO4)C2)cccc1[N+](=O)[O-] (stereo not drawn)
→ ., 8%[46.1 µM], ., 19%, -6%, ., 0%, 4%
- O=C(O)[C@@H]1CCCN1C(=O)CCc1c[nH]c2ccccc12
→ 3%, 7%[46.1 µM], ., -3%, -12%, ., -3%[46.1 µM], -1%
- Cc1cc(C)cc(C(=O)NCC(=O)OCC(=O)Nc2cccnc2Cl)c1
→ 2%, 9%[46.1 µM], ., 4%, -8%, ., -9%, -2%
- O=C(c1cccs1)N1CCN(c2cccc(Cl)c2)CC1
→ -44%, ., ., -18%, -14%, ., ., -5%
- O=C(CCCn1c(=O)c2cccn2c2ccccc21)NCCc1ccc(Cl)cc1
→ ., ., -12%, ., -16%, 10%, ?, .
- COC(=O)c1sccc1NC(=O)c1cccnc1
→ -10%, 3%, -5.4%, -6%, 2%, -1%, 2%, .
- CC(NC(=O)CCNS(=O)(=O)c1cccc2nonc12)c1ccccc1 (stereo not drawn)
→ -6%, -1%[46.1 µM], ., 0%, 18%, ., 5%, -4%
- O=C(NC1=NCCS1)C1CCCCC1
→ ., ?, ., -20%, 1%, ., 24%, -2%
- Cc1cc(NS(=O)(=O)c2ccc(-c3ccccc3)cc2)no1
→ -176%, -7%, -4.6%, 10%, 5%, -1%, 1%, -12%
- Cc1ccc(C(=O)Nc2cccc(O)c2)cc1S(=O)(=O)N1CCCCCC1
→ 10%, ?, -9.3%, 0%, 13%&-13%, -7%, 2%&9%[46.1 µM], 2%
- CCOC(=O)C1(Cc2ccccc2Cl)CCN(C(=O)c2cc(C)on2)CC1
→ -13%, ., ., -3%, 21%, ., ., 0%
- O=C(c1ccc(C(F)(F)F)cc1)N1CCC(=O)N(C(COCc2ccc(C(F)(F)F)cc2)Cc2ccccc2)CC1 (stereo not drawn)
→ ?, ?, -0.9%, -14%, ?, ?, ?, -13%
- CCOC(=O)c1cc2sccc2n1CC(=O)Nc1ccc(OC)cc1OC
→ -2%, -16%, -3.0%, -3%, ., 26%, 1%, 1%
- COc1ccc(OCCC(=O)OCC(=O)NC2CCCCC2)cc1
→ ., -26%, ., -9%, 5%, ., ?, 1%
- CCc1ccnc(NC(=O)NS(=O)(=O)c2ccc(C)cc2)c1
→ 1%, ?, ., -7%, 41%[activator], ., 0%, 1%
- O=C1CC(=O)Nc2cc(S(=O)(=O)N3CCN(c4ccc([N+](=O)[O-])cc4)CC3)ccc2N1
→ -4%, ., ., -8%, -17%, ., ., -2%
- CC(C)(C)OC(=O)NCCCC[C@H](NC(=O)c1nc[nH]c1C(=O)NCC(=O)OCc1ccccc1)C(=O)OC(C)(C)C
→ ?, ., ., -2%, -25%, ., ., 0%
- N#Cc1c(N)oc(-c2cccs2)c1-c1cccs1
→ -64%, -28%, -8.6%, 3%, -4%, ?, 0%, -7%
